POLB inh: qHTS Assay for Inhibitors of DNA Polymerase Beta; Pol beta primer extension/strand displacement, fluorescence kinetic; Potency, µM (doses to about 114 µM), for the others: at the highest dose activity change, negative = inhibition, usual class: inhibitors; actives 1.3% (n = 340,000); further: on the % scale 0 is the no-effect control and ±100 the full control effect
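Human Pol beta at 10 nM; strand-displacement substrate 50 nM final. Compound exposure 15 min at room temperature before start, reaction 10 min at room temperature.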
POLK inh: qHTS for Inhibitors of Polymerase Kappa; purified Pol kappa, fluorescent DNA synthesis assay, 10 min; DNA polymerase kappa (Homo sapiens), Q9UBT6; AID 588579, 2011; Potency, µM (series often up to 107 µM), inactives show at the highest dose activity, negative = inhibition, usual class: inhibitors; actives 0.53% (n = 400,000); further: on the % scale 0 is the no-effect control and ±100 the full control effect
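First, compounds were pin-transferred onto 10 nM Pol kappa. After 15 min at room temperature, substrate was added to 50 nM final. Fluorescence was then measured kinetically at 0 and 10 min.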
BLM inh: qHTS Assay for Inhibitors of Bloom's syndrome helicase (BLM). recombinant BLM DNA unwinding, fluorescence dequenching. Potency, µM (highest dose often 56.1 µM), inactives show top-dose activity change, negative = inhibition, actives largely listed as inhibitors. actives 0.2% (n = 350,000). AID 2528, 2010;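 further: plate controls were vehicle for no effect and no enzyme for full effect; nearly all actives have a fitted effect of over 35% in size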
APEX1 inh: qHTS Assay for Inhibitors of the Human Apurinic/apyrimidinic Endonuclease 1 (APE1). AID 2517, 2012. recombinant APE1, TAMRA/BHQ-2 abasic DNA cleavage fluorescence. Potency, µM (highest dose often 65.8 µM), inactives show at the highest dose activity change, negative = inhibition, most hits filed as inhibitors. actives 0.35% (n = 350,000);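 further: plate controls were vehicle for no effect and reference inhibitor for full effect; nearly all actives have a fitted effect of over 55% in size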
Target sequence (P27695 whole entry, looked up): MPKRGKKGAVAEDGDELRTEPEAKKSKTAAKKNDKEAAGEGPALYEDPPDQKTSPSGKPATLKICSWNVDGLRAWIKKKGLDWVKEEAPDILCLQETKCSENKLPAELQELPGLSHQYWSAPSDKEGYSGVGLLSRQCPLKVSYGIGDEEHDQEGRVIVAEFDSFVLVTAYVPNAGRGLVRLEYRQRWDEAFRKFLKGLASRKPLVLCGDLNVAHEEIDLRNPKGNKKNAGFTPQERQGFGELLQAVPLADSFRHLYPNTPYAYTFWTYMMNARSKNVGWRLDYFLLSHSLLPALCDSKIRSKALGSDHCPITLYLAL
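APE1 at 0.75 nM preincubated 15 min at room temperature with compound. Reaction then started with 50 nM double-stranded THF-abasic substrate labelled with TAMRA/BHQ-2, and 525/598 nm fluorescence read kinetically. Activity taken as third-minus-first read difference, normalized to DMSO and NSC13755 controls.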
Anesthetic bind: qHTS Assay for Identification of Novel General Anesthetics; Ferritin light chain (Equus caballus), P02791; apoferritin/1-aminoanthracene competitive binding, fluorescence; Potency, µM (highest dose often 77.5 µM), for the others: at the highest dose activity change, negative = displacement, usual class: inhibitors; actives 0.074% (n = 350,000); further: on the % scale 0 is the no-effect control and ±100 the full control effect; nearly all actives have a fitted effect of over 20% in size
Target sequence (P02791 2-175 limits assumed): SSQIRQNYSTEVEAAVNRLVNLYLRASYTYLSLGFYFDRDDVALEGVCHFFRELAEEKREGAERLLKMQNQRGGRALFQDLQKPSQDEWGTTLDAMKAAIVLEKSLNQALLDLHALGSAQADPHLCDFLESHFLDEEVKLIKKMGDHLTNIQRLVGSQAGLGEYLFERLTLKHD
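Apoferritin-based anesthetic binding model; compound displacement of fluorescent 1-AMA measured as endpoint fluorescence after 10 minutes at room temperature, scaled to free-ligand and complex controls.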
POLI inh: qHTS for Inhibitors of Polymerase Iota; DNA polymerase iota (Homo sapiens), Q9UNA4; Pol iota fluorescent replication assay, 10 min; Potency, µM (top dose mostly 115 µM), inactives show at the top dose activity, negative = inhibition, actives largely listed as inhibitors; actives 1% (n = 390,000); AID 588590, 2011
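Fluorescent replication assay read twice, at 0 min and 10 min after adding 50 nM (final) substrate. Enzyme (10 nM) and compounds were first incubated 15 min at room temperature; enzyme-free buffer wells were negative controls.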
PGK inhibitor: qHTS Assay to Find Inhibitors of Phosphoglycerate Kinase; Phosphoglycerate kinase, glycosomal (Trypanosoma brucei brucei), P07378; actives 0.043% (n = 380,000); Potency, µM (top dose mostly 57.5 µM), without a hit: top-dose activity change, negative = inhibition, actives largely listed as inhibitors; PGK/GAPDH coupled, Kinase-Glo luminescence, 60 min; further: on the % scale 0 is the no-effect control and ±100 the full control effect; nearly all actives have a fitted effect of over 60% in size
Target sequence (P07378 whole entry, looked up): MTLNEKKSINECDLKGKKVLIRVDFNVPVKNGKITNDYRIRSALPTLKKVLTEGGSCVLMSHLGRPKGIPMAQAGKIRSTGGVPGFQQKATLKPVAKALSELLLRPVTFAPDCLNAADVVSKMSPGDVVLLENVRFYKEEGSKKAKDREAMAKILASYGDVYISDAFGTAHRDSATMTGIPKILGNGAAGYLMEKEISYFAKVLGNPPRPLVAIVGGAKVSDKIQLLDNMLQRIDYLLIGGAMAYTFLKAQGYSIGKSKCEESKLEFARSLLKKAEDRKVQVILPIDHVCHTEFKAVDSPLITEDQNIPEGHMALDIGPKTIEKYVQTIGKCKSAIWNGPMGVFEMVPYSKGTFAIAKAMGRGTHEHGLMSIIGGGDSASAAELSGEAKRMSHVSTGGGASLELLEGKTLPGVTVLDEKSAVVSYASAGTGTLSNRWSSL
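Recombinant glycosomal PGK reaction used 1,3-bisphosphoglycerate generated in-well by GAPDH (100nM final) in 100mM TEA pH 7.6, 5mM MgCl2, 0.01% Tween-20. After 60 minutes at room temperature, ATP was read by Kinase-Glo Plus luminescence end-point.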
POLH inh: qHTS for Inhibitors of Polymerase Eta; DNA polymerase eta (Homo sapiens), Q9Y253; recombinant Pol eta, fluorescent DNA replication assay; Potency, µM (titrated, usually from 114 µM), without a hit: at the highest dose activity change, negative = inhibition, actives largely listed as inhibitors; actives 1.2% (n = 390,000); AID 588591, 2011; further: on the % scale 0 is the no-effect control and ±100 the full control effect
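Pol eta at 10 nM preincubated with compounds 15 min at room temperature; reaction started with fluorescent substrate (50 nM final) and read kinetically at 0 and 10 min.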
Active calls of the source: *; i = inactive; ? = inconclusive; . = not tested or not shown; [ ] = another dose, or the depositor's remark. The call rests on the fitted dose curve; in most records, active means well fitted curve in the direction sought with a large enough effect; inconclusive means small, poorly fitted or top-dose-only effect, or another doubt; inactive means no such curve, though single readings can be large; an effect the other way counts as inactive or inconclusive. Potency means the concentration at half of the fitted maximal effect. Only part of the results is shown; the hit share may differ from the screen's.

SMILES	POLB inh	POLK inh	BLM inh	APEX1 inh	Anesthetic bind	POLI inh	PGK inhibitor	POLH inh
CCc1ccc(N2C(=O)C3ON(c4ccccc4)C(c4ccco4)C3C2=O)cc1 (stereo not given)	0%	-9%	-6%	-2%	?	5%	7%	-26%
O=c1c2cc(N3CCOCC3)ccc2[nH]c(=S)n1CCN1CCCC1	-1%	3%	-7%	-5%	49%[activator]	6%	-6%	-7%
O=C(NCCc1ccccc1)c1cc(-c2ccccc2)nc2n[nH]c(-c3ccccc3)c12	27%	-4%	2%	.	1%	7%	23%	-15%
CCn1c(C)cc(=S)c2ccccc21	-19%	-5%	1%	-2%	-15%	9%	-12%	0%
Cc1ccc2c(=O)c(C(=O)c3ccccc3)cn(CC(=O)NCc3ccccc3)c2n1	?	-3%	-5%	.	-2%	39%[activator]	-12%	-16%
[S-]c1nnc(-c2ccc(Br)cc2)n1-c1ccccc1.[Zn+2]	0%	-1%	-3%	6%	-10%	2.8µM*	-5%	6%
CCOC(=O)N1CCN(C(=O)COc2ccc3ccccc3c2Br)CC1	-1%	-15%	-3%	32%	-16%	20%	5%	-1%
COCCn1nnnc1C(c1cc2c(C)cc(C)cc2[nH]c1=O)N1CCCCCC1 (stereo not given)	5%	-4%	3%	-6%	4%	-11%	-10%[11.5 µM]	7%
CCc1nc(SCC(N)=O)c2c(=O)n(C)c(=O)n(C)c2n1	-1%	1%	-2%	2%	4%	-7%	-5%	-4%
CCOC(=O)c1c(NC(=O)COc2ccc(C)cc2C(C)(C)C)sc2c1CCC(C)C2 (stereo not given)	5%	-3%	-1%	.	-5%	25%	-9%	-9%
COc1cccc2cc(C(=O)NCCN3CCOCC3)oc12	-18%	4%	-8%	-15%	?	42%	-9%	-5%
CCc1cc2c(cc3c(=O)n(CC(=O)NCCc4ccccc4)ncn32)s1	?	-9%	-8%	.	-12%	6%	-1%	-10%
O=C(c1ccco1)N1CCN(C(=O)C2CC(=O)N(c3ccc(Cl)cc3)C2)CC1 (stereo not given)	-15%	0%	1%	18%	-1%	?	-5%	-13%
Cc1ccc(N(C(=O)c2ccccn2)C(C(=O)NC2CCCCC2)c2ccncc2)cc1 (stereo not given)	42%	0%	0%	4%	-9%	44%[activator]	-10%	-22%
N#CC1=C(O)CCCn2c1nc1ccccc1c2=O	6%	-5%	-7%	1%	-7%	16%	9%	-6%
CCOC(=O)c1c(NC(=O)/C=C/c2ccc(Cl)cc2)sc2c1CCC(C)C2 (stereo not given)	1%	-17%	-2%	.	-10%	5%	-5%	-8%
CCc1cccc(NC(=O)c2nc(-c3ccncc3)no2)c1	9%	-18%	0%	.	33%[activator]	12%	6%	-4%
CCc1nnc(NC(=O)CSc2nnc3nc(C)cc(C)n23)s1	10%	4%	-5%	-18%	-6%	11%	i	-17%
CCOc1ccccc1C(=O)NC1(C(F)(F)F)C(=O)Nc2c1c(=O)[nH]c(=O)n2-c1ccc(F)cc1 (stereo not given)	1%	-3%	1%	.	-5%	24%	7%	-15%
Cn1c(N)c(C(=O)COc2ccc(C#N)cc2)c(=O)n(C)c1=O	-5%	-24%	-1%	-1%	2%	155%[activator]	-5%	-5%
CC1Cc2cc(/C(O)=C3\C(=O)C(=O)N(Cc4cccnc4)C3c3ccccc3F)ccc2O1 (stereo not given)	6%	13%	-2%	-7%	5%	1%	-9%	-5%
Cc1cc(C)c(NC(=O)CSc2nncn3c2cc2oc(C)cc23)c(C)c1	1%	-12%	-3%	.	-8%	25%	-4%	-2%
COc1cc(NC(=O)CSc2nnc(C)n3c2cc2oc(C)cc23)cc(OC)c1	12%	6%	1%	.	-5%	37%[activator]	1%	-11%
NS(=O)(=O)c1ccc2nc(NC(=O)c3ccc4c(c3)OCCO4)sc2c1	9%	8%	-10%	-23%	-1%	?	-4%	-23%

Taken from above:
Value for CC1Cc2cc(/C(O)=C3\C(=O)C(=O)N(Cc4cccnc4)C3c3ccccc3F)ccc2O1 (stereo not given) under Anesthetic bind: 5%
Value for Cn1c(N)c(C(=O)COc2ccc(C#N)cc2)c(=O)n(C)c1=O under POLK inh: -24%
Value for Cc1cc(C)c(NC(=O)CSc2nncn3c2cc2oc(C)cc23)c(C)c1 under POLI inh: 25%
Value for N#CC1=C(O)CCCn2c1nc1ccccc1c2=O under APEX1 inh: 1%
Value for O=C(c1ccco1)N1CCN(C(=O)C2CC(=O)N(c3ccc(Cl)cc3)C2)CC1 (stereo not given) under POLB inh: -15%
Value for CCOC(=O)c1c(NC(=O)/C=C/c2ccc(Cl)cc2)sc2c1CCC(C)C2 (stereo not given) under PGK inhibitor: -5%

Structures from the list above that contain a thiophene ring, fused or not (3):
SMILES	POLB inh	POLK inh	BLM inh	APEX1 inh	Anesthetic bind	POLI inh	PGK inhibitor	POLH inh
CCOC(=O)c1c(NC(=O)COc2ccc(C)cc2C(C)(C)C)sc2c1CCC(C)C2 (stereo not given)	5%	-3%	-1%	.	-5%	25%	-9%	-9%
CCc1cc2c(cc3c(=O)n(CC(=O)NCCc4ccccc4)ncn32)s1	?	-9%	-8%	.	-12%	6%	-1%	-10%
CCOC(=O)c1c(NC(=O)/C=C/c2ccc(Cl)cc2)sc2c1CCC(C)C2 (stereo not given)	1%	-17%	-2%	.	-10%	5%	-5%	-8%

The listing continues:
SMILES	POLB inh	POLK inh	BLM inh	APEX1 inh	Anesthetic bind	POLI inh	PGK inhibitor	POLH inh
CCC(=O)c1ccc(OCCN2CCOCC2)cc1	2%	-2%	-1%	3%	-6%	2%	1%	-1%
CCc1c(O)cc(=O)n(-c2ccccc2)c1-c1ccccc1	22µM*	-16%	-24%	-3%	-13%	?	-10%	32µM*
COCCn1c(=NC(=O)CCS(=O)(=O)c2ccccc2)sc2cc(C(=O)OC)ccc21	2%	3%	-6%	-7%	-2%	6%	5%	-9%
CCOC(=O)/C(C#N)=C1/C=C(C)NC(c2ccccc2O)=N1	-7%	0%	3%	2%	-6%	86%[activator]	-10%	-16%
COc1ccc(OCC(=O)Nc2nc(-c3ccc(Br)cc3)ns2)cc1	8%	-2%	-4%	.	2%	9%	-1%	-5%
Cn1c(=O)c2c(ncn2Cc2ccc(Cl)c(Cl)c2)n(C)c1=O	20%	-3%	-5%	13%	-1%	-7%	i	-4%
CC(C)CC(=O)Nc1ccc(C(=O)OCc2cc(=O)n3nc(C4CCCCC4)sc3n2)cc1	-30%	0%[60.1 µM]	-9%	.	25%	28%	-6%	-21%
CCOc1ccc(CCNC(=O)c2ccc(Cn3c(=O)c4cccn4c4cccnc43)cc2)cc1	5%	-19%	-21%	.	-2%	-11%	i	?
CC1=C(C(=O)OCC2CCCO2)C(c2ccccc2OC(C)C)C2=C(CC(c3ccco3)CC2=O)N1 (stereo not given)	-12%	-14%	-5%	-1%	67%[activator]	-9%	i	-2%
c1ccc(C(c2ccccc2)N2CCN(Cc3nnnn3C3CCCC3)CC2)cc1	-1%	-8%	-8%	-4%	-3%	-7%	-2%	-21%
CCOC(=O)Cn1c(=S)[nH]c2c(oc3ccc(Cl)cc32)c1=O	-1%	-6%	-3%	5%	-10%	?	4%	-2%
O=C(CSc1ncnc2sc3c(c12)CCC3)NCC1CCCO1 (stereo not given)	10%	0%	-5%	-6%	-10%	45%[activator]	0%	-19%
CCOC(=O)c1c(NC(=O)Cn2nnc3ccccc32)sc2c1CCC(C)C2 (stereo not given)	31%	-9%	-8%	-7%	-11%	-6%	-5%	-23%
COc1ccc(C(=O)Nc2nnc(-c3ccccc3)s2)cc1	56%	-8%	-12%	-7%	0%	126%[activator]	1%	?
On1c(-c2ccco2)nc2c1CCc1nonc1-2	4%	?	-6%	0%	-6%	33%[activator]	-5%	1%
CCc1nnc(NC(=O)CSc2ccc(-c3ccccc3OC)nn2)s1	-23%	-1%	-2%	-1%	-24%	74%[activator]	7%	-20%
CSc1sc(C(=O)NCC2CC2)c2c1S(=O)(=O)N(C)c1ccccc1-2	2%	3%	-2%	0%	-10%	8%	-1%	-15%
CCN(CC)c1ccc(C(=O)OCC(=O)c2ccco2)cc1	-2%	-21%	2%	0%	-15%	3%	-1%	-11%
Cc1ccccc1C(=O)NC1(C(F)(F)F)C(=O)Nc2c1c(=O)[nH]c(=O)n2-c1ccc(F)cc1 (stereo not given)	0%	3%	-4%	.	-2%	8%	-10%	-22%
COc1ccc(-c2nnc(SCC(=O)Nc3ccc(C)c(C)c3)s2)cc1	-2%	-9%[60.1 µM]	-2%	.	-2%	14%	-3%	-11%
Cc1ccc(OCC(=O)Nc2ccc(OCc3cc(=O)n4c(C)csc4n3)cc2)cc1C	0%	-2%	-9%	.	-6%	33%[activator]	-5%	-20%
CCC1CCCCN1CCn1c(=S)[nH]c2cc(OC)c(OC)cc2c1=O (stereo not given)	0%	-17%	25%	0%	?	2%	-6%	-15%
CCc1c(C)[nH]c2ccc(OC)cc2c1=S	-28%	1%	-4%	1%	-22%	80%[activator]	i	-21%
CCN(CC)S(=O)(=O)c1ccc(N2CCOCC2)c(NC(=O)c2cc(=O)[nH]c3ccccc23)c1	4%	-3%	-5%	1%	-10%	62%[activator]	-2%	-15%
